MT1-MMP promoter: MT1-MMP gene expression reporter suppression – cell-based, luciferase reporter, luminescence (AID 618) | MT1-MMP promoter luciferase reporter cells, luminescence | calls from a first round at 10 µM; hits with a dose series show EC50 in µM | 0.62% of 87,000 active;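 active = over half of the reporter light lost at 10 µM or EC50 under 50 µM; inactive = the rest and hits that failed the dose series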;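 note: actives suppress MT1-MMP promoter-driven transcription so potencies describe inhibitors; HT1080 fibrosarcoma cells; overnight exposure; toxic or luciferase-blocking compounds were not removed from the actives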
Hsc70: small molecules displacing fluorescent ligand from Hsc70 – biochemical, fluorescence polarization, primary screen (AID 568); 83,000 tested, under 10 active; displacement, % at 20 µM, or IC50 in µM where a hit was titrated; Hsc70 fluorescence polarization, probe displacement; higher % means a stronger effect; strong numbers were not always called active;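 active = displacement above 50% without optical interference and an IC50 on retest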;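 note: ATPase domain with a fluorescein-tagged ATP probe; 0% = vehicle and 100% = excess ADP; read after one hour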
WNV NS2B-NS3 inh: blocks West Nile virus NS2B-NS3 protease activity; P06935; WNV NS2B-NS3 protease, fluorogenic substrate Ex360/Em465; active compounds read low; z-score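 (tested at a level between 10 and 100 µM)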; 0.18% of 65,000 active; AID 577;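 active = z-score at -3 or under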;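 note: score is relative to mean and spread of the compound wells of a plate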
Target sequence (P06935 1371-1501 limits assumed): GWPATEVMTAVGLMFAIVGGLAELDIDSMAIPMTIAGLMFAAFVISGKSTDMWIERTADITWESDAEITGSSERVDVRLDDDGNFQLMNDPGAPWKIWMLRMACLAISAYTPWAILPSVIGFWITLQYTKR
Target sequence (P06935 1502-1679 limits assumed): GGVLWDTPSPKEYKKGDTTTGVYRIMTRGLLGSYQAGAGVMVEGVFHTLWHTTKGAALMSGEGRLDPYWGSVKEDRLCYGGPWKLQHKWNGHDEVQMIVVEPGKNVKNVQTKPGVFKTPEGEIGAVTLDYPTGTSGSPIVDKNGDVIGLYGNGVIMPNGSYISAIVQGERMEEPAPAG
Active calls of the source: *; i = inactive; . = not tested or not shown; & = joins results of further samples.

The line under a structure holds: MT1-MMP promoter	Hsc70	WNV NS2B-NS3 inh
Cc1cccc(-n2nnc(C(=O)N3CCc4ccccc4C3)c2N)c1
→ i	-2.8%	0.38
CCCCCCCCOC(=O)CCc1c(C)[nH]c(=S)[nH]c1=O
→ i	3.6%	.
CCn1c(Oc2ccc(Oc3ncc(Cl)cc3Cl)cc2)nc2c1c(=O)n(C)c(=O)n2C
→ i	0.5%	-1.15
CCS(=O)(=O)N1CCC(C(=O)NCCN2CCN(Cc3ccccc3)CC2)CC1
→ i	-1.9%	-1.16
Cc1ccc(C(=O)c2ccc([N+](=O)[O-])cc2)c(C)c1
→ i	-0.3%	.
Cc1ccc(NC(=O)c2cc(-n3cnnc3)ccc2Cl)cc1
→ i	-2.5%	.
CC(C)CCn1c(SCCc2ccccc2)nc2c1c(=O)[nH]c(=O)n2C
→ i	-0.7%	1.13
CC1Cc2ccccc2N1C(=O)Cn1c(=O)oc2cc(S(=O)(=O)N3CCCCC3)ccc21 (stereo not given)
→ i	-11.5%	0.49
O=C(O)CSc1sc(=S)sc1SCC(=O)O
→ i	4.0%	0.24
COc1cc(C(=O)Nc2nnc(CC(=O)N3CCOCC3)s2)cc(OC)c1OC
→ i	1.3%	-0.21
CS(=O)(=O)N(CC(=O)NCc1ccccc1)C1CCCCC1
→ i	-1.5%	.
COc1ccccc1CNC(=O)C1CCN(S(=O)(=O)c2cccc3cccnc23)CC1
→ i	-1.4%	-0.31
COc1ccc(NC(=O)COc2ccccc2C#N)c(S(=O)(=O)N2CCCCC2)c1
→ i	8.2%	-0.65
Cc1ccnc(NS(=O)(=O)c2ccc(Oc3ccccc3)cc2)c1
→ i	4.3%	.
Oc1ccc(Br)cc1-c1nc2cnccn2c1NC1CCCC1
→ i	3.9%	1.34
CS(=O)(=O)c1ccc(Cl)c(NC(=O)C2CC(=O)N(Cc3ccccc3)C2)c1 (stereo not given)
→ i	4.7%	0.3
CCCn1c(=O)n(C)c(=O)c2c3oc(=O)c(NC(=O)c4ccc(F)cc4)cc3[nH]c21
→ i	7.7%	-0.78
Cc1ccc(NC(=O)CSc2ncn(-c3ccccc3)n2)cc1C
→ i	-1.6%	.
CSc1nc2ccc(Cl)cc2[nH]1
→ i	-4.6%	.
CC(C)CCNC(=O)NC(=O)CSc1nnc(COc2ccccc2Cl)o1
→ i	2.0%	1.31
COCCN1C(=O)c2ccccc2C(C(=O)NCC2CCCO2)C1c1c[nH]c2ccccc12 (stereo not given)
→ i	-3.4%	-0.73
COc1ccc(-c2nnn(CC(=O)c3c[nH]c4ccccc34)n2)cc1OC
→ i	-23.2%	1.16
O=S(=O)(c1cc(Cl)ccc1Br)N1CCOCC1
→ i	-0.9%	0.27
CC1CC(C)CN(CCCNC(=O)COc2cc(=O)n(C)c3ccccc23)C1 (stereo not given)
→ i	-4.2%	0.15
COC(=O)c1[nH]nc2c1C(=O)N(C1CCCCC1)C2=O
→ i	2.9%	0.35
Cc1cc(C(=O)Nc2cc(C)n(Cc3ccc(Cl)cc3)n2)no1
→ i	-5.1%	-0.17
Cn1cnnc1SCC(=O)c1ccco1
→ i	-8.7%	1.06
CC/C(=N\O)c1ccc(O)c(OC)c1
→ i	2.2%	-0.01
CC1CCCC(NC(=O)Cn2cc3c(n2)CCCCC3)C1C (stereo not given)
→ i	-1.2%	-0.35
CC(=O)Nc1ccc(S(=O)(=O)N2CCN(CCCOc3cc(C)ccc3C)CC2)cc1
→ i	-2.0%	-0.32
Cc1cc(C)c2nc(SCC(=O)N3CC(=O)Nc4ccccc43)c(C#N)cc2c1
→ i	-12.5%	.
CCn1c(SCC(=O)Nc2cc(C)on2)nnc1-c1cccnc1
→ i	-1.6%	0.59
Cc1ccc(N=C(NOCc2ccc(Cl)cc2Cl)c2nonc2N)c(C)c1
→ i	-2.3%	.
CCCOC(=O)CSC1=C(C#N)C(c2ccc3c(c2)OCO3)CC(=O)N1 (stereo not given)
→ i	3.3%	-0.59
O=C(Nc1ccc2c(c1)OCCO2)C1CCCN(S(=O)(=O)Cc2ccccc2)C1 (stereo not given)
→ i	-8.8%	-0.47
Cc1ccccc1Nc1nc(N)nc(COC(=O)c2cccn2C)n1
→ i	-2.3%	0.04
O=C(NCc1ccco1)C(C(=O)c1ccccc1)n1ccccc1=O (stereo not given)
→ i	-3.8%	-0.76
Cc1ccsc1C(=O)OCC(=O)N1CCOCC1
→ i	-0.6%	-0.37
COc1ccc(-n2nnc3c(=O)n(CC(=O)N4CCCCC4)cnc32)cc1
→ i	3.8%	-0.44
Cc1ccc(Oc2ccccc2)c(NC=O)c1
→ i	-0.3%	-0.67
CC(=O)Nc1ccc(N(C(=O)c2cnccn2)C(C(=O)NC2CCCCC2)c2ccc(O)cc2)cc1 (stereo not given)
→ i	-1.1%	-1.41
Cc1noc(C)c1S(=O)(=O)Nc1ccc(C(=O)N2CCN(c3cccc(Cl)c3)CC2)cc1
→ i	-3.3%	.
O=C(Nc1ccccc1)c1cc(-n2cnnc2)ccc1Cl
→ i	0.7%	.
Cc1ccc(C(=O)C2C(=O)c3ccccc3C2=O)cc1
→ i	-0.2%	.
Cc1nc2cc(C(=O)O)ccc2n1C1CCCCC1
→ i	11.2%	.
O=C(CNS(=O)(=O)c1ccc(F)cc1)N1CCN(c2ccc(F)cc2)CC1
→ i	2.6%	0.23
CCC(c1nnnn1Cc1ccccc1)N1CCN(C(=O)c2ccco2)CC1 (stereo not given)
→ i	7.2%	-0.72
Cc1ccsc1C(=O)N1CC(=O)Nc2ccccc21
→ i	3.2%	1.07
COc1cc(C2c3c(oc4c(C)cc(C)cc4c3=O)C(=O)N2Cc2cccnc2)ccc1O (stereo not given)
→ i	-1.8%	0.56
O=C(Nc1ccccc1)NC1(C(=O)NCc2ccc3c(c2)OCO3)CCCCC1
→ i	-2.6%	-0.27
Cc1cc(NC(=O)c2cnn3c(C(F)F)cc(C4CC4)nc23)no1
→ i	-3.0%	-0.86
CCOc1ccccc1-n1c(CNc2ccc(F)cc2)nnc1SCC(=O)NCc1ccco1
→ i	-6.0%	.
COc1cc(-c2nnc(-c3ccncc3)o2)ccc1OCc1ccccc1
→ i	2.9%	0.58
COCCNC(=O)c1ccccc1NC(=O)CN(c1ccc2c(c1)OCO2)S(C)(=O)=O
→ i	0.5%	-0.33
O=C(NCCN1CCOCC1)c1ccccc1-c1ccccc1
→ i	3.1%	0.74
COC(=O)c1c[nH]n2c(=O)cc(C)nc12
→ i	0.8%	2.02
Cc1ccc(CN2C(=O)CCC2C(=O)NCCN2CCOCC2)cc1 (stereo not given)
→ i	0.3%	0.29
CCOc1ccc2nc(-c3ccccc3)[nH]c2c1
→ i	2.6%	0.45
COc1cc(SC)ccc1C(=O)Nc1ccccc1
→ i	4.0%	.
Cc1onc(-c2ccccc2)c1C(=O)N1CCN(C)CC1
→ i	-3.6%	.

Further records:
The line under a structure holds: MT1-MMP promoter	Hsc70	WNV NS2B-NS3 inh
COc1ccc(CC/C(=N\O)C2(O)CCCCC2)cc1
→ i	0.6%	-0.38
O=C(Cn1[nH]c(=O)c2ccccc2c1=O)OCC(=O)N1CCc2ccccc2C1
→ i	-1.0%	1.03
COC(=O)CCS(=O)(=O)c1ccc(Cl)cc1
→ i	-5.2%	.
COc1ccc2nc(C)cc(SCC(=O)O)c2c1
→ i	1.2%&6.4%	-1.12
COC(=O)Cc1c(C)nc2nc(NCc3ccccc3OC)[nH]n2c1=O
→ i	-0.1%	.
CC(C)(C)c1cnnn1-c1ccc(NC(=O)c2ccc3c(c2)OCO3)cc1
→ i	8.4%	-1.6
Cc1c(C(=O)O)sc(=S)n1-c1ccccc1
→ i	-1.2%	0.19
CSc1nc(C)cc(C)c1C(N)=O
→ i	-2.4%	.
Cc1cnn(C(=S)NCCc2ccccc2)c1
→ i	3.6%	0.74
O=C(CCSc1ccccc1)N1CCN(C(=O)c2ccco2)CC1
→ i	4.0%	-0.62
COc1ccc(N2C(=O)CC(N3CCC(O)(c4ccc(Cl)cc4)CC3)C2=O)cc1 (stereo not given)
→ i	-10.3%	.
CCOC(=O)c1[nH]c(C)c(C(=O)OCC(=O)N2c3ccccc3CC2C)c1C (stereo not given)
→ i	-4.3%	.
c1ccc(-c2noc(-c3cccc4ccccc34)n2)cc1
→ i	-1.6%	2.14
CC1(C)Cc2c(sc(/N=C/N3CCOCC3)c2C#N)C(C)(C)N1
→ i	2.3%	-0.16
O=C(CN1CCN(S(=O)(=O)c2ccc(Br)cc2)CC1)Nc1ccc2c(c1)OCCO2
→ i	-0.1%	-0.79
Cc1ccc(-n2nc3ccc(NC(=O)c4ccco4)cc3n2)cc1
→ i	-1.6%	.
Cc1c(NC(=O)Nc2ccccc2Cl)sc(=S)n1C
→ i	8.0%	.
O=c1c2ccccc2nc2ccc(NCc3ccco3)nn12
→ i	10.4%	-1.07
O=C(O)c1ccc(CS(=O)(=O)c2cccc(C(F)(F)F)c2)o1
→ i	-0.9%	-1.05
O=C1c2ccccc2C(=O)N1CCc1nc2ccccc2c(=O)n1-c1ccccn1
→ i	-0.3%	0.99
CCN1C(=O)c2cccc3c(S(=O)(=O)NCc4cccnc4)ccc1c23
→ i	1.7%	.
O=C(c1ccco1)N1CCN(C(c2ccccc2Cl)c2nnnn2CC2CCCO2)CC1 (stereo not given)
→ i	-0.9%	0.56
CCOC(=O)C1=C(C)N=C2SCCC(=O)N2C1c1sccc1C (stereo not given)
→ i	1.3%	1.53
Cc1cc(NC(=O)CSc2nc3ccccc3n2CC(=O)N2CCC(C)CC2)no1
→ i	0.7%	.
Cn1c(-n2c(-c3ccco3)nc3ccccc3c2=O)nc2ccccc21
→ i	-0.4%	0.35
CSc1nnc(COc2ccc(C)cc2)n1N
→ i	0.2%	.
CCN1CCN(CC(=O)Nc2ccc(Cl)c(Cl)c2)C(=O)C1=O
→ i	5.8%	-0.41
N#C/C(=C/c1ccc(Br)o1)C(N)=O
→ i	-1.5%	.
OCC(CO)(CO)n1cnnn1
→ i	1.9%	0.6
NC(=O)NC1CCCc2c1[nH]c1ccc(Cl)cc21 (stereo not given)
→ i	3.3%	-3.01*

Single values from the list:
Cc1ccc(NC(=O)c2cc(-n3cnnc3)ccc2Cl)cc1 @ Hsc70: -2.5%
Cc1ccc(C(=O)C2C(=O)c3ccccc3C2=O)cc1 @ Hsc70: -0.2%

Back to the main list, starting two compounds before the break.
The line under a structure holds: MT1-MMP promoter	Hsc70	WNV NS2B-NS3 inh
OCC(CO)(CO)n1cnnn1
→ i	1.9%	0.6
NC(=O)NC1CCCc2c1[nH]c1ccc(Cl)cc21 (stereo not given)
→ i	3.3%	-3.01*
Cc1ccc(-c2nnc(CSc3nnc(COc4ccccc4)n3-c3ccc(C)cc3)o2)cc1
→ i	-1.9%	-1.33
CCCCN(C)C/C(O)=C(\C#N)c1nc(-c2ccccc2)cs1
→ i	0.7%	.
Cc1cccc(OCC(=O)Nc2ccc(N3CCN(S(C)(=O)=O)CC3)cc2)c1
→ i	-0.6%	-0.36
Nc1nncn1C(=O)c1ccccc1Cl
→ i	-6.7%	1.26
CCN(CC)CC(=O)c1c[nH]c2ccccc12
→ i	-3.8%	-0.76
CCCc1nc(SC2CCCC2)c2c(=O)n(C)c(=O)n(C)c2n1
→ i	-0.3%	0.68
O=C(CSc1nnc2c(n1)[nH]c1ccc(F)cc12)OCc1ccccc1
→ i	-5.2%	0.73
CCCCc1nnc(SCc2ccc(OCC)cc2)n1N
→ i	3.3%	-0.88
O=C(NCC(=O)N(Cc1cccs1)C(C(=O)NC1CCCCC1)c1ccco1)c1cccs1 (stereo not given)
→ i	1.5%	.
COc1ccc(-c2nn(-c3ccccc3)cc2C(=O)n2nnc3ccccc32)cc1
→ i	2.1%	.
COc1ccc(C(=O)NCc2nc3ccccc3[nH]2)cc1OC
→ i	3.4%	0.23
Cn1c(=O)c2c(nc(Sc3nc4ccccc4n3CC(=O)N3CCCCC3)n2C)n(C)c1=O
→ i	-3.5%	-0.47
O=C1c2oc3ccccc3c(=O)c2C(c2cccc(O)c2)N1CCCN1CCOCC1 (stereo not given)
→ i	2.0%	-0.83
CCCCc1ccc(NC(=O)OC)cc1
→ i	8.6%	2.23
CCOc1ccc(CCn2c(-c3ccco3)nc3ccccc3c2=O)cc1OCC
→ i	-2.2%	.
CCN(CC)S(=O)(=O)c1ccc(NC(=O)CSc2nnc(-c3ccc(F)cc3)o2)cc1
→ i	5.1%	-1.44
CC1=CC(C)(C)N2C(=O)C3(N=C(N)NC(Nc4ccccc4)=N3)c3cc(C)cc1c32 (stereo not given)
→ i	4.5%	-0.49
O=c1c(-c2ccnn2-c2ccc(F)cc2)cnc2n1CCS2
→ i	-1.4%	.
NC(=O)c1sc2nc3c(c(-c4ccco4)c2c1N)CCC3
→ i	15.8%	-0.26
COCC(=O)N(Cc1cc2cc(OC)ccc2[nH]c1=O)c1ccccc1OC
→ i	7.0%	1.16
CNS(=O)(=O)c1ccc(OC)c(-c2nnc3c4ccccc4c(C)nn23)c1
→ i	-0.2%	.
C=CCn1c(=O)c(C(=O)Nc2ccccc2C(=O)OCC)c(O)c2ccccc21
→ i	1.2%	-0.14
CCn1cc(C(=O)N2CCc3ccccc3C2)c(=O)c2cc(S(=O)(=O)N3CCCCC3)ccc21
→ i	4.3%	.

These rows are one share of the data (hit frequency here may not be typical).
